Bioassay records deposited in PubChem BioAssay by ICCB-Longwood Screening Facility, Harvard Medical School.
AID504770: growth inhibitors of E. coli YBA685 in a screen for V. cholerae RctB (chromosome II replication) inhibitors | E. coli YBA685 rctB-dependent plasmid, OD600 growth, 3 h; active compounds read low | z-score (test concentration not listed) | actives 0.27% (n = 130,000) | AID 504770;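 active means z-score under -2 on both plates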;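 further: wells of about 30 µL received 100 nL stock; score is relative to mean and SD of the test wells; the first replicate is given; strong numbers were not always called active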
CapD inh: inhibitors of Bacillus anthracis CapD enzyme | actives 0.23% (n = 140,000) | AID 492967 | z-score (no concentration beside the values) | purified CapD enzyme, fluorescence intensity read-out; active compounds read low; some hits fall short of the stated cut;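 active means z-score under -4 in either of two replicates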;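 further: stock transfer was 100 nL into about 40 µL; score is relative to mean and spread of the plate; one replicate is shown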
* = called active by the depositor.

CC(C)c1ccc(NC2(C#N)C(=O)Nc3ccccc32)cc1 (configuration not stated) was read as AID504770 -0.65 and CapD inh 0.32.
`CC(CN1CCN(Cc2ccccc2)CC1)OC(=O)c1cccs1` (configuration not stated) gave AID504770 -0.35 and CapD inh 0.055.
C=CCN1C(=O)/C(=C\c2cccs2)S/C1=N/c1nnc(C)s1 was read as CapD inh -0.2.
For O=C(COCC(=O)N1CCC(c2nc(-c3cccnc3)no2)CC1)NCCc1ccccc1 the results were CapD inh -0.97.
For COc1ccc(Cl)cc1S(=O)(=O)NCC1CCC2CC1C2(C)C (configuration not stated) the results were CapD inh -1.2.
O=C(ON1C(=O)CCC1=O)c1ccccc1 was read as AID504770 -0.75 and CapD inh -2.5.
Cc1ccc(-c2noc(C3CCCCC3)n2)cc1 was read as AID504770 0.25 and CapD inh 0.47.
`O=C(O)CSCc1ccc(Cl)c(Cl)c1` gave AID504770 0.95.
Screening Cc1ccc2c(c1)-c1onc(C(=O)N3CCCCC3c3cccnc3)c1CO2 (configuration not stated) returned AID504770 -0.1 and CapD inh 1.6.
Screening CC(C)=C1C(=O)Nc2ccc(S(=O)(=O)N(CC(C)C)CC(C)C)cc21 returned AID504770 0.45 and CapD inh -0.045.

Seven structures already listed, arranged by molar mass, highest first.
For O=C(COCC(=O)N1CCC(c2nc(-c3cccnc3)no2)CC1)NCCc1ccccc1 the results were CapD inh -0.97.
Screening Cc1ccc2c(c1)-c1onc(C(=O)N3CCCCC3c3cccnc3)c1CO2 (configuration not stated) returned AID504770 -0.1 and CapD inh 1.6.
Screening CC(C)=C1C(=O)Nc2ccc(S(=O)(=O)N(CC(C)C)CC(C)C)cc21 returned AID504770 0.45 and CapD inh -0.045.
C=CCN1C(=O)/C(=C\c2cccs2)S/C1=N/c1nnc(C)s1 was read as CapD inh -0.2.
CC(C)c1ccc(NC2(C#N)C(=O)Nc3ccccc32)cc1 (configuration not stated) was read as AID504770 -0.65 and CapD inh 0.32.
Cc1ccc(-c2noc(C3CCCCC3)n2)cc1 was read as AID504770 0.25 and CapD inh 0.47.
O=C(ON1C(=O)CCC1=O)c1ccccc1 was read as AID504770 -0.75 and CapD inh -2.5.

Returning to the listing; the 2 compounds before the break are reprinted first.
Screening Cc1ccc2c(c1)-c1onc(C(=O)N3CCCCC3c3cccnc3)c1CO2 (configuration not stated) returned AID504770 -0.1 and CapD inh 1.6.
Screening CC(C)=C1C(=O)Nc2ccc(S(=O)(=O)N(CC(C)C)CC(C)C)cc21 returned AID504770 0.45 and CapD inh -0.045.
Screening O=C(Nc1ccc(N2C(=O)CCC2=O)cc1Cl)C1CCCCC1 returned AID504770 -0.85 and CapD inh 0.27.
CC(C)(C)c1c(C#N)sc2sc(C#N)c(N)c12 was read as AID504770 -1.2 and CapD inh -0.1.
Cc1cnc(C(=O)Nc2nc3ccccc3[nH]2)cn1 was read as AID504770 0.35.
Screening O=C(Oc1ccccc1)OC1C=CS(=O)(=O)C1 (configuration not stated) returned AID504770 -0.6 and CapD inh -0.58.
Clc1ccc(Oc2cnns2)c2ccccc12 was read as AID504770 -1.4 and CapD inh 0.32.
Screening O=C(CCCN1C(=O)c2ccccc2C1=O)OCc1nc2ccc(Cl)cc2n1CCO returned AID504770 1.8.
For O=C(O)CNC(=O)c1cccs1 the results were AID504770 -0.9 and CapD inh 0.07.
For O=C1c2ccccc2-c2onc3c(Cl)cc(NC4CCCCC4)c1c23 the results were AID504770 0.25 and CapD inh 0.57.
Screening O=c1c(O)c(-c2cccs2)oc2ccccc12 returned AID504770 0.65 and CapD inh 14.
Screening O=C(Cc1ccc(-n2c(=O)c3ccccc3n(CC(=O)Nc3cc(F)ccc3F)c2=O)cc1)NCC1CCCO1 (configuration not stated) returned AID504770 0.3 and CapD inh 1.3.
`CC(=O)N1CCc2cc(S(=O)(=O)CCC(=O)O)ccc21` gave AID504770 -0.75.
Screening O=C(O)c1nonc1NCn1nnc2ccccc21 returned AID504770 -0.65 and CapD inh 0.39.
CCOC(=O)Cn1c(=O)c(C#N)cn(C(C)C)c1=O was read as CapD inh 0.34.
`O=c1[nH]c(CN2CC=C(c3ccccc3)CC2)nc2ccccc12` gave AID504770 -0.1.
For Cc1onc(-c2ccccc2)c1CNC(=O)Nc1ccc(C(F)(F)F)cc1 the results were AID504770 0.5 and CapD inh 0.23.
CS(=O)(=O)Cc1ccc(C(=O)Nc2ccccc2C(=O)NC2CC2)cc1 was read as AID504770 0.45.
CCOC(=O)c1c(C)[nH]c(C)c1C(=O)COc1ccc2c(c1)OCO2 was read as AID504770 -0.15.
For Cc1csc(C(=O)O)c1Cl the results were CapD inh -0.1.
Cc1ccc(-c2cc3c(nn2)-c2ccccc2C3=O)cc1 was read as AID504770 -0.85 and CapD inh -0.065.
`N#CCC(=O)N/N=C/c1c[nH]c2cc(OCc3ccccc3)ccc12` gave CapD inh 1.1.
`CC1=CC2CC1C1C(=O)N(c3ccc(C(F)(F)F)cc3)C(=O)C21` (configuration not stated) gave AID504770 0.4 and CapD inh -0.26.
`CCOC(=O)C(=O)N1c2c(C)cccc2-c2c(ssc2=S)C1(C)C` gave CapD inh -0.62.
For O=C(Cn1cnc2ccccc2c1=O)Nc1ccc(Oc2ccccc2)cc1 the results were AID504770 1.2 and CapD inh -0.69.
Screening CSC1=NSC2=NC(=O)/C(=C\c3cccs3)C(=N)N12 returned AID504770 -0.85 and CapD inh 9.1.
Cc1cccc(CSc2nnc(-c3c[nH]c4ccccc34)n2C)c1 was read as AID504770 -1.2 and CapD inh -0.51.
`O=C(O)CSc1nc2cccnc2s1` gave AID504770 -0.7 and CapD inh -0.75.
`N#C/C(=C\Nc1cccc(Cl)c1)c1nc(-c2ccc3c(c2)OCO3)cs1` gave AID504770 0.6 and CapD inh -0.84.
Screening CC(C)(C)N(N)C(=S)Nc1cccc(Cl)c1 returned AID504770 -0.8.
Screening CC12c3ccccc3C(c3ccccc31)C1C(=O)N(c3cccc(C(F)(F)F)c3)C(=O)C12 (configuration not stated) returned CapD inh -0.2.
For c1ccc(CN2CCOC(CNc3nc(-c4cccnc4)nc4ccccc34)C2)cc1 (configuration not stated) the results were AID504770 -1.1.
Screening Cc1ccccc1Nc1nc(N)nc(CN(C)Cc2ccc(F)cc2)n1 returned AID504770 -0.65.
Screening CC1=NN(c2ccccc2)C(=O)C1(O)C1C(=O)c2ccccc2C1=O (configuration not stated) returned AID504770 2.4.
`COc1ccccc1NC(=O)N(Cc1ccc(S(C)(=O)=O)cc1)Cc1cccc(C(F)(F)F)c1` gave CapD inh -0.43.
For Cc1ccc2c(c1)N(C(C)C(=O)NC1CC1)C(=O)CO2 (configuration not stated) the results were AID504770 -0.15 and CapD inh -0.75.
For COc1ccc(C2CC(=O)c3cnc(NCc4ccccc4)nc3C2)cc1 (configuration not stated) the results were AID504770 -0.35 and CapD inh 0.54.
`CCOC(=O)C1=CN(c2ccc(OCC)cc2)C=C(C(=O)OCC)C1c1ccc(OC)c(OC)c1` gave CapD inh 5.
For COc1ccc(NC(=O)CS(=O)CC(=O)Nc2cc(OC)ccc2OC)cc1 (configuration not stated) the results were AID504770 2.8.
For CC(=O)N1CCc2c([nH]c3ccccc23)C1C (configuration not stated) the results were AID504770 0.3.
c1ccc(-n2nnnc2Oc2cccc3cccnc23)cc1 was read as AID504770 -0.65 and CapD inh -0.22.
Cc1ccc(S(=O)(=O)c2nc(C)oc2NCc2ccco2)cc1 was read as CapD inh 0.42.
Screening Cc1ccc(S(=O)(=O)c2ccc(NN)cc2)cc1 returned AID504770 1.4 and CapD inh 12.
Screening c1ccc2nc(-c3cn[nH]c3-c3ccncc3)ccc2c1 returned CapD inh 5.5.
`CCOc1ccc(NC(=O)CSC2=C(C#N)C(c3ccncc3)C(C(=O)Nc3ccc(Cl)cc3)=C(C)N2)cc1` (configuration not stated) gave CapD inh -0.49.
N=C(N)c1ccc(C(N)=O)cc1 was read as AID504770 0.15 and CapD inh 1.3.
`CC(OC(=O)Cc1n[nH]c(=O)c2ccccc12)C(=O)Nc1ccc(Cl)cn1` (configuration not stated) gave AID504770 -0.4.
O=C(CCOc1ccccc1)NCc1ccccc1 was read as AID504770 1.1 and CapD inh 0.12.
`O=S(=O)(Nc1cccc(Br)c1)c1ccc(Br)s1` gave AID504770 -0.15 and CapD inh -1.1.
For O=C(O)c1sccc1-c1ccccc1 the results were AID504770 -0.4.
COc1ccc(COC(=O)C2=C(C)NC(=O)NC2c2cccc(OC)c2OC)cc1 (configuration not stated) was read as CapD inh 7.7.
For Cc1ccc(Cn2c(NC(=O)C3CCCCC3)nc3ccccc32)cc1 the results were CapD inh -1.
For CCc1nc(-c2cc3ccc(C)cc3[nH]c2=O)no1 the results were AID504770 -0.6 and CapD inh 11.
Screening O=C(Nc1ccc(Cl)cc1)C1=NS(=O)(=O)c2ccccc2N1 returned AID504770 -0.1 and CapD inh 2.7.
COc1ccc(O)c(C(=O)c2cnn(-c3ccc(Cl)cc3)c2)c1 was read as AID504770 -0.65.
CC(=O)N1CCN(C(=O)c2ccc(-n3c(C)ccc3C)cc2)CC1 was read as AID504770 -0.4.
Screening C=CCc1c(C)[nH]n(-c2ccc(C(=O)O)cc2)c1=O returned AID504770 -0.75.
Screening CCn1c(C(=O)N2CCC(C(=O)NCc3ccc(C)cc3)CC2)cc2occc21 returned AID504770 -0.1 and CapD inh 0.35.
Screening CN(Cc1ccccc1)C1CCN(Cc2ccc(Cl)cc2)CC1 returned AID504770 1.9 and CapD inh 0.26.
For NC(=O)c1oc2ccccc2c1NC(=O)c1cccs1 the results were AID504770 -0.85 and CapD inh 0.76.
`CCC(C)c1ccccc1OCC(O)CN1CCN(Cc2ccc3c(c2)OCO3)CC1` (configuration not stated) gave AID504770 -0.3 and CapD inh -0.11.
Screening CC(=O)N1C(C(=O)O)Cc2c([nH]c3ccccc23)C1C (configuration not stated) returned CapD inh 0.68.
Screening COc1ccc(-c2c(C)oc3ccc(Cl)cc23)cc1 returned AID504770 0.1 and CapD inh 0.43.
O=c1[nH]c(O)c(C=Nc2ccc(F)c(Cl)c2)c(=O)[nH]1 was read as AID504770 1.6 and CapD inh -0.47.
Screening O=S1(=O)CCN2N=C(C(F)(F)F)SC2=N1 returned AID504770 0.6.
For CN/N=C/c1c(O)ccc2ccccc12 the results were AID504770 0.75.
Screening CCOCCCNC(=O)c1ccc2c(c1)ncn2-c1ccc(OCc2ccccc2)cc1 returned CapD inh -0.3.
`Cc1cccc(Cl)c1S(=O)(=O)N1CCN(Cc2cc3ccccc3o2)CC1` gave CapD inh 0.54.
For CCOC(=O)N1CCN(CCC(=O)Nc2cccc(Cl)c2C)CC1 the results were AID504770 0.25.
`Cc1csc(SCc2c(C(=O)Oc3ccc(-n4cnnn4)cc3)oc3ccccc23)n1` gave AID504770 -0.3.
For O=C(NC1CCN(C(=O)Nc2ccccc2C(F)(F)F)CC1)c1ccco1 the results were AID504770 -0.45.
Screening CC1=CC(C)(C)Nc2ccc(OCC(=O)N3c4ccccc4Sc4ccccc43)cc21 returned AID504770 -0.4 and CapD inh -0.59.
O=C(NCC1CCCO1)c1ccc2c(c1)N(Cc1ccc(F)cc1)C(=O)/C(=C/c1ccccc1)S2 (configuration not stated) was read as AID504770 1.3 and CapD inh 0.095.
`Cc1ccc(CN(C)C(=O)c2ccc(N3C(=O)c4ccccc4C3=O)cc2)o1` gave AID504770 -0.6.
For Cc1cc[n+](CCOc2ccc(N)cc2)cc1 the results were AID504770 -0.45 and CapD inh 0.28.
For COc1ccc(C(=O)N2CCN(C(=O)OCCn3nc(-c4ccccc4)cc3-c3ccccc3)CC2)cc1F the results were CapD inh 0.05.
`C[C@]12CCC(=O)C=C1CCC1C2CC[C@@]2(C)C1CC[C@@H]2O` (some centres not stated) gave CapD inh -0.065.
For Cc1nn(-c2ccccc2)c2[nH]c(=O)c(C#N)c(-c3cccs3)c12 the results were AID504770 -0.1 and CapD inh -0.03.
For O=C1c2ccccc2C(=O)N1CSc1nnc(Cc2cccs2)n1CCc1ccccc1 the results were AID504770 -1.1.
For CS(=O)(=O)c1ccc(Cl)c(NC(=O)c2ccc3c(=O)n4c(nc3c2)CCC4)c1 the results were AID504770 -0.05.
CCOc1ccc(OCC)c(S(=O)(=O)N(C)C2CCCCC2)c1 was read as AID504770 -0.3 and CapD inh 0.39.
`CC(C)(C)c1ccc(C(=O)OCCN2CCCC2=O)cc1` gave AID504770 0.2 and CapD inh -0.1.
`Cn1c(CNCc2ccccc2)nc2ccccc21` gave AID504770 -1.9 and CapD inh -0.07.
Screening C/C(=N\N=C(N)N)c1ccc(-n2ccnc2)cc1 returned AID504770 -0.25.
`Cc1ccccc1C(=O)N(C)Cc1ccccc1` gave AID504770 0.5 and CapD inh -0.06.
For O=S(=O)(Nc1ccccn1)c1ccc(Oc2ccccc2)cc1 the results were AID504770 -0.15 and CapD inh 13.
For COc1ccc(NC(=O)CC(=O)c2ccccc2)cc1 the results were AID504770 0.85 and CapD inh -0.62.
Screening CC1(C)Cc2ccccc2C(Nc2ccc(S(N)(=O)=O)cc2)=N1 returned AID504770 -0.95 and CapD inh -0.48.
`CCOC(=O)C1C(C(=O)Nc2cccc(C(F)(F)F)c2)C1C(=O)N1CCCC1` (configuration not stated) gave CapD inh -0.71.

Random excerpt: 3 records from the list
For COc1ccc(NC(=O)CC(=O)c2ccccc2)cc1 the results were AID504770 0.85 and CapD inh -0.62.
For O=S(=O)(Nc1ccccn1)c1ccc(Oc2ccccc2)cc1 the results were AID504770 -0.15 and CapD inh 13.
Screening CC1(C)Cc2ccccc2C(Nc2ccc(S(N)(=O)=O)cc2)=N1 returned AID504770 -0.95 and CapD inh -0.48.

Rows are unselected (roughly 0.39% active in at least one column).
